D2 ag = agonists of human D2 dopamine receptor (beta-arrestin); P14416; DiscoveRx PathHunter D2 beta-arrestin, luminescence, 90 min; 100% = 57 uM dopamine signal; activation, % (no concentration beside the values); 0.084% of 360,000 active; AID 624465; in the data active = activation above about 40%; inconclusive = about 15% to 40%; inactive = below about 15%; note: compound concentration not given in the record; the text of the record calls up to 30% inactive
Target sequence (P14416 whole entry, looked up): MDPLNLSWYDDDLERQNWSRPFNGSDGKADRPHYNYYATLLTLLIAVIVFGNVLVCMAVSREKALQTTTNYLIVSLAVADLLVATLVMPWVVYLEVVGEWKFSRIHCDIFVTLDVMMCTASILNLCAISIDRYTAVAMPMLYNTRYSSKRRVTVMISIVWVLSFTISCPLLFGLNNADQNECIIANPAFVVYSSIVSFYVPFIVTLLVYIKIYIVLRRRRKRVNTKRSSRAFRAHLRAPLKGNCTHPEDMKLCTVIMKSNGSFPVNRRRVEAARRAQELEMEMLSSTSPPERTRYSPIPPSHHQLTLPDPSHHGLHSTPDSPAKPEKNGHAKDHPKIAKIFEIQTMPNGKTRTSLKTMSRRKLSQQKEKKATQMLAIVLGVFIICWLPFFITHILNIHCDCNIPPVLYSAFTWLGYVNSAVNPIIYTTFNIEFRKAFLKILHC
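DiscoveRx PathHunter D2 beta-arrestin cells (2,100/well) attached overnight, then compound-stimulated 90 min at 37 C in HBSS/10 mM HEPES/0.1% Tween-20 buffer; beta-galactosidase complementation read by luminescence after 1 h at ambient temperature. Dopamine 57 uM final (EC100) as control.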
TRPML1 inh = blocks the human TRPML1 channel. TRPML1-inducible cells, Ca2+ dye fluorescence, FDSS; active compounds read low; inhibition of EC80 agonist-evoked calcium signal. Q9GZU1. AID 624415. 0.02% of 390,000 active. activity change, negative = inhibition, % (test concentration not listed); in the data active means activity change below about -50%; inconclusive means about -30% to -50%; inactive means above about -30%;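 note: stimulus is agonist 54-4 at its EC80 concentration; % is set by controls: 0 for no effect and ±100 for the full control effect; compound concentration not given in the record; the text of the record puts the active cut at -80%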
Target sequence (Q9GZU1 whole entry, looked up): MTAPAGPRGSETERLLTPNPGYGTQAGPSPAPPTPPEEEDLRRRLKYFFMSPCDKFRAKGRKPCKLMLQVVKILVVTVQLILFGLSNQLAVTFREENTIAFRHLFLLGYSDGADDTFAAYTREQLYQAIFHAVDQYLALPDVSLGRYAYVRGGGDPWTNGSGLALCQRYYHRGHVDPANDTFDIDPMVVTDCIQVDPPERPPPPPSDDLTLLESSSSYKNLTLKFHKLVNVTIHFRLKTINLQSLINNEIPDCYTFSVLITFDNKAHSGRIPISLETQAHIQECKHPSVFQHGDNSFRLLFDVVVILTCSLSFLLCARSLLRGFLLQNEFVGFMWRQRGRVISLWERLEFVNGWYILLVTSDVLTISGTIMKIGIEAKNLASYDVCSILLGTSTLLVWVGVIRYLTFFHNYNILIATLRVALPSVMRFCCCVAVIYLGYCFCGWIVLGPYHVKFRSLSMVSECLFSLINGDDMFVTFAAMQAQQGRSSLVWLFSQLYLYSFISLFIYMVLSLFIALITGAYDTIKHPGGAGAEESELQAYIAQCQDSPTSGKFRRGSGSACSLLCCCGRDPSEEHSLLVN
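Calcium fluorescence in TRPML1-DL cells induced overnight with Tet: a 110 s read after compound pin addition, then a 110 s antagonist read after challenge with 54-4 at 4 uM final (EC80).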
PINK1 expr mod = PINK1 expression modulation | Potency, µM (top dose mostly 76.6 µM), for inactives: top-dose activation (PINK1 increase), hits mostly activators | 0.2% of 410,000 active | PINK1 immunofluorescence, high-content cytometry, 24 h; active = well fitted activation curve with a large enough effect; inconclusive = small, poorly fitted or top-dose-only effect; inactive = flat fitted curve, though single readings scatter; cell line not stated here;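 note: potency is the fitted concentration of half-maximal effect; % of control where 0% means no effect; nearly all actives have a fitted effect of over 65% in size; a mitochondrial uncoupler was the plate control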
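Decision-based qHTS: stable cells, 24 h exposure to five compound concentrations, CCCP as control. Fixed cells stained for PINK1 plus nuclear, mitochondrial and cell markers, cytometer read.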
TRPML1 agonist = activates the human TRPML1 channel. Q9GZU1. activation, % (test concentration not listed). AID 624414. TRPML1-expressing cells, Ca2+ dye fluorescence, FDSS; host cell line not named in the record; reference of the full effect not given here. 0.12% of 410,000 active; in the data active = activation above about 50%; inconclusive = about 30% to 50%; inactive = below about 30%; note: 0% is about no effect; the text of the record puts the active cut at 80%
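Agonist activity was taken from a 110 s kinetic Ca2+ dye read on the FDSS after pinning compounds onto TRPML1-DL cells. The cells were seeded at 1,500/well with Tet inducer, incubated about 16 h, then dye-loaded at room temperature.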
Six1-Eya2 blk = inhibitors of human Six1/Eya2 interaction; activity change, % (test concentration not listed); AlphaScreen GST-Six1/His-Eya2 binding, biochemical; active compounds read low; control for the full effect not named in the record; 0.56% of 360,000 active; AID 651725; Q15475+O00167; in the data active = activity change below about -65%; inconclusive = about -30% to -65%; inactive = above about -30%; note: % is set by controls: 0 for no effect and ±100 for the full control effect
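Six1/Eya2 binding was read as AlphaScreen signal after compounds were pinned into GST-Six1 plus His-tagged Eya2 (5X stock 250/500 nM) in pH 8.0 Tris/NaCl/TCEP buffer, beads added, then incubated 1 h, 37 C, dark.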
D2 potentiator = potentiates the human D2 dopamine receptor allosterically; DiscoveRx D2 beta-arrestin cells, luminescence, 90 min; 100% = 57 uM dopamine signal; 0.23% of 360,000 active; potentiation, % (test concentration not listed); active = potentiation of 50% or more; inconclusive = 30% to 50%; inactive = 30% or less;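 note: compound concentration not given in the record; tested on top of an EC20 dose of dopamine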
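D2 cells co-treated with compound plus 50 nM dopamine (EC20) for 90 min at 37 deg C to detect potentiation. Beta-arrestin recruitment was read as enzyme-fragment luminescence after 1 h at ambient temperature. Full response was set by 57 uM dopamine.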
Active calls of the source: *; ? = inconclusive; . = not tested or not shown; & = joins results of further samples; [ ] = another dose, or the depositor's remark.

SMILES | D2 ag | TRPML1 inh | PINK1 expr mod | TRPML1 agonist | Six1-Eya2 blk | D2 potentiator
O=C1C(C=NCc2ccncc2)=C(O)c2ccccc21 | -4.4 | -5.9 | -0.9% | 1.1 | 6.3 | -6.0
O=C(CSc1nnc(Cn2nnc3ccccc32)o1)N(Cc1ccc(Cl)cc1)c1ccccc1 | -1.3 | 15.9 | -1.0% | -0.3 | -6.1 | -1.1
O=C1N/C(=C/c2cccn2-c2ccc(F)cc2)C(=O)N1Cc1ccccc1 | 4.6 | -7.4 | 18.7%[38.3 µM] | 0.0 | -2.4 | -3.8
COc1ccc(NC(=O)CSc2nc3nc(C)cc(C)n3n2)cc1OC | . | -17.9 | -0.7% | -0.3 | . | .
Cc1ccc([C@H]2N[C@]3(CCCN(Cc4ccc(Br)cc4)C3=O)[C@H]3C(=O)N(Cc4ccccc4)C(=O)[C@@H]23)cc1 | -2.3 | 34.4 | 1.8% | -0.5 | 16.6 | -2.9
Cc1c(OCC(=O)NCC2CCC(C(=O)O)CC2)ccc2c3c(c(=O)oc12)CCC3 (stereo not given) | 1.3 | . | 1.4% | . | -15.6 | -11.2
O=C(Nc1ccc(S(=O)(=O)N2CCCCC2)cc1)C1CCN(C(=O)c2ccc(F)cc2)CC1 | 4.3 | -12.7 | -0.6% | -0.1 | -2.0 | 5.7
O=C(NCC1CCCO1)c1ccc2c3n(nc2c1)-c1ccccc1CO3 (stereo not given) | -2.3 | -3.0 | 0.5% | -0.3 | -7.8 | -5.6
O=c1c(Cc2ccc(F)cc2)c(O)ccn1CCc1cnc[nH]1 | -5.0 | -13.0 | -0.1% | 0.7 | -1.6 | -3.2
CCOC(=O)C1(C)CCCN(C(=O)c2cccc(C(F)(F)F)c2)C1 (stereo not given) | -4.2 | . | 0.3% | -1.1 | 7.0 | -3.6
C=C(C)COc1ccc(-c2nc(N)ncc2-c2ccc(Cl)cc2)c(O)c1 | -2.5 | 56.2 | -1.5% | -0.4 | -7.9 | -6.1
Cc1cccc(NC(=O)CSc2nnc3[nH]c(=O)cc(C)n23)c1C | . | 17.1 | 2.3% | 0.2 | . | .
O=C(CSc1nnc(Nc2ccccc2F)s1)NC(=O)CN1CCCC1=O | -3.0 | 39.7 | 0.2% | -1.6 | -11.5 | 3.9
C[C@@H](C(=O)NCCc1ccc(F)cc1)N1C(=O)N2CCc3c([nH]c4ccccc34)[C@@]2(C)C1=O | 5.7 | . | -0.7% | . | -10.3 | -28.8
O=C(O)CCCCCNC(=O)c1ccc(Br)cc1 | 0.2 | 0.3 | 0.9% | 4.2 | 7.4 | -4.5
CC(=O)Nc1ccc(C(=O)CSc2nnnn2C)cc1 | 3.0 | -10.1 | 0.7% | -0.3 | -0.8 | 0.7
O=C(N/N=C/c1cn(-c2ccccc2)nc1-c1cccs1)c1ccncc1 | 1.2 | -11.3 | 4.0% | 1.2 | -12.4 | ?
COc1cccc(NC(=O)CN(C)CC(=O)Nc2ccc3c(c2)OCO3)c1 | 3.2 | -8.2 | -2.1% | 0.7 | 5.1 | -3.1
Cc1ccc2nc(SCC(=O)N/N=C/c3ccco3)cc(C)c2c1 | -1.0 | 7.5 | 2.4% | -0.1 | -26.8 | 8.0
CC(C)C(=O)Nc1nc(-c2ccc3c(c2)CCN3C(=O)C2CC2)cs1 | 2.2 | 10.3 | 1.7% | 0.1 | -1.4 | -6.3
O=C(O)C1(P(=O)(c2ccc(Cl)cc2)c2ccc(Cl)cc2)CC1 | -0.8 | -0.8 | -0.8% | 0.5 | -0.7 | 1.5
NC(=S)n1[nH]c(-c2ccc([N+](=O)[O-])cc2)c(N=Nc2ccccc2[N+](=O)[O-])c1=O | -2.1 | 2.5 | 3.8% | 0.6 | -19.1 | -2.9
Cc1ccc(C(=O)NCc2ccco2)c(C)c1 | 0.1 | 5.5 | 2.4% | 0.2 | 2.5 | 2.9
CCCn1c2ccccc2c2cnn(CC(=O)NCCN(CC)CC)c(=O)c21 | -3.3 | 8.0&-1.1 | 1.7%&0.2% | -0.8&0.1 | 1.4 | -11.9
O=C1Nc2ccccc2C(O)(C(=O)NCc2ccc3c(c2)OCO3)N1c1ccc(Cl)c(Cl)c1 (stereo not given) | -10.1 | 8.1 | -3.1% | 2.8 | -0.2 | 3.4
Cc1cc2[nH]c(=O)c(=O)[nH]c2cc1S(=O)(=O)Nc1cccc(F)c1 | 2.2 | 3.0 | 1.0% | -0.9 | 16.2 | 2.7
CCn1nc(C)cc1C(=O)N1CCCC(C(=O)c2ccc(OC)cc2C)C1 (stereo not given) | 0.8 | 5.8 | 0.7% | -0.5 | -0.4 | -7.4
Cc1sc2ncnc(N3CCN(S(=O)(=O)c4ccccc4)CC3)c2c1C | -5.1 | 2.4 | 1.7% | 0.8 | -5.7 | -13.5
O=C1CSC(=S)N1N=Cc1ccc(OCc2ccccc2)cc1 | 6.5 | 28.3 | ? | 0.3 | ? | -8.5
CC(C)c1ccc(NC(=O)CS(=O)(=O)c2cccc3nsnc23)cc1 | . | 1.4 | ? | 3.5 | . | .
O=C(N1CCCCC1)C1(c2ccccc2)CCOCC1 | -0.6 | 1.0 | -1.1% | -0.4 | 5.7 | -15.8
O=C(CC12CC3CC(CC(C3)C1)C2)NC(=S)Nc1ccc(CN2CCOCC2)cc1 | 4.3 | 1.5 | 0.1% | -0.4 | 2.1 | -1.5
Cc1ccc(CCNC(=O)CCS(=O)(=O)c2ccc3nc(C)sc3c2)cc1 | 1.0 | 1.9 | -0.2% | 0.6 | 0.0 | -1.6
COc1ccc(N2CCN(C(=O)c3oc4ccccc4c3NC(=O)CCc3cc(OC)no3)CC2)cc1 | -0.7 | -1.3 | 1.4% | 0.6 | -19.9 | -6.3
Cc1[nH]c2ccccc2c1SCC(=O)NNC(=O)Nc1ccc(OC(F)(F)F)cc1 | -0.9 | -15.0 | -1.5% | 1.8 | -0.4 | -4.8
Cc1ccccc1NC(NC(=O)c1cccnc1)C(Cl)(Cl)Cl (stereo not given) | 0.2 | -15.8 | 12.7% | 0.9 | 11.7 | -2.1
COc1ccc(OC)c(CNC(=O)C2CCCN(c3nc4ccccc4o3)C2)c1 (stereo not given) | 1.4 | -5.8 | 3.4%[38.3 µM] | 1.3 | -3.0 | -2.7
Cc1ccccc1N1CC(c2nc3ccccc3[nH]2)CC1=O (stereo not given) | -0.7 | 1.6 | 2.7%[38.3 µM] | -0.8 | -2.4 | 4.0
O=C(CSc1cn(CCNC(=O)c2ccccc2)c2ccccc12)NCC1CCCO1 (stereo not given) | -0.2 | -0.3 | -0.3% | -0.7 | 2.6 | -1.1
CC(C)[C@H](NC(=O)CCCn1nnc2ccccc2c1=O)C(=O)O | -7.7 | 9.6 | 2.5% | -0.5 | 0.0 | -3.7
Cc1ccc(Sc2c(C)nn(-c3ccccc3)c2OC(=O)C(C)(C)C)cc1 | . | 15.2 | 1.8% | 0.3 | . | .
COC(=O)c1cc2cc(NS(=O)(=O)c3ccc(C)cc3)ccc2s1 | -1.7 | -6.0 | -3.1% | -0.4 | -0.3 | -9.5
COCC(=O)Oc1c(Sc2ccc(C)cc2)c(C)nn1C(C)(C)C | . | 4.9 | 2.4% | 0.1 | . | .
N#C/C(=C\c1cccnc1)c1ccccc1[N+](=O)[O-] | 0.2 | 35.5 | 1.0% | 0.2 | 5.9 | 2.0
O=C(NC1CCCC1)C1CC1c1ccccc1 (stereo not given) | 0.8 | 9.7 | -0.3% | 0.0 | 0.7 | -3.3
O=C1C(C=Nc2ccccc2)=C(O)c2ccccc21 | -0.5 | -8.6 | 1.0% | -0.3 | -1.0 | 0.0
O=C1CC(NCc2ccccc2)C(=O)N1c1ccc(F)cc1 (stereo not given) | -4.8 | -8.4 | 1.8% | -0.8 | 7.5 | -5.2
COC(=O)C1=C(C)N(C2CCCCC2)C(=O)/C1=C\c1cccs1 | 3.6 | 1.8 | -1.7% | 0.3 | -21.6 | 0.4
CSc1ccc(CN(C)CC(=O)NCc2ccc(F)cc2)cc1 | -5.7 | -7.7 | 9.6% | 0.6 | -0.4 | -24.5
N=c1oc2cc(O)ccc2cc1C(=O)Nc1nc2ccccc2s1 | 4.1 | 34.3 | 5.8% | 4.4 | 5.2 | 2.3
COc1ccc(NC(=O)CN2C(=O)C(c3ccccc3)=NC23CCC(C)CC3)cc1Cl (stereo not given) | . | 8.8 | 2.2% | -0.1 | . | .
CC(=O)c1ccc(NC(=O)CSc2nc(C3CCCC3)nc3c2c(=O)n(C)c(=O)n3C)cc1 | . | -2.0 | -0.9% | -0.9 | . | .
C/C(CC(=O)Nc1cc(Cl)ccc1C)=N\NC(=O)C(=O)N1CCCC1 | -0.6 | 10.2 | 1.3% | 0.0 | -0.4 | -10.9
COc1ccc(OCC(=O)N(Cc2sccc2C)C2CCS(=O)(=O)C2)cc1 (stereo not given) | 0.8 | 50.3&-16.0 | -0.5%&0.4% | -0.2&-0.5 | 3.1 | -6.6
CCCCn1c(N)c(N(CC(C)C)C(=O)c2ccc(-n3c(C)ccc3C)cc2)c(=O)[nH]c1=O | 0.7 | 9.0 | 0.0% | 0.3 | 0.6 | 0.8
COc1ccc(CNC(=O)C2CCN(c3nc4ccc(C)cc4[nH]3)CC2)cc1 | . | 6.7 | 1.2% | -1.0 | . | .
CN1CC[C@]23c4ccccc4N[C@H]1[C@]21CCN(C)[C@H]3Nc2ccccc21 | -4.6 | 5.4 | 1.4% | -0.4 | -5.7 | -8.3
Nc1cccc(C(=O)OCC(=O)Nc2cccc3c2C(=O)c2ccccc2C3=O)c1 | ? | 43.2 | ? | 1.4 | -19.8 | 60.2*
Cc1ccc(S(=O)(=O)N2CCC(C(=O)N/N=C/c3ccccc3[N+](=O)[O-])CC2)cc1 | -1.7 | 43.3 | 2.7% | 0.2 | -17.2 | -19.9
NS(=O)(=O)c1ccc(-n2nncc2C23CC4CC(CC(C4)C2)C3)cc1 | -1.1 | -5.8 | . | -0.2 | 2.3 | 5.9

Records listed above shown as hits in D2 potentiator.
| smiles | D2 ag | TRPML1 inh | PINK1 expr mod | Six1-Eya2 blk | D2 potentiator |
| --- | --- | --- | --- | --- | --- |
| Nc1cccc(C(=O)OCC(=O)Nc2cccc3c2C(=O)c2ccccc2C3=O)c1 | ? | 43.2 | ? | -19.8 | 60.2* |

The list continues.
SMILES | D2 ag | TRPML1 inh | PINK1 expr mod | TRPML1 agonist | Six1-Eya2 blk | D2 potentiator
C[C@@H]1CN([C@H](C)CO)C(=O)CCCn2nncc2CO[C@H]1CN(C)S(=O)(=O)c1ccccc1 | -7.9 | -12.4 | -1.7% | -0.6 | 7.6 | -7.6
COc1ccccc1C(=O)Nc1cc2c(cc1N1CCOCC1)n(C)c(=O)n2C | . | 28.4 | 0.4% | -1.1 | . | .
O=C(NCc1ccccn1)c1ccc(Cn2c(=S)[nH]c3ccccc3c2=O)cc1 | -2.4 | 21.3 | 14.2% | 1.3 | -8.5 | -7.9
COc1ccc(SC[C@H](C)CN2CC[C@H](C(C)(C)C)CCC2=O)cc1 | 6.4 | 12.6 | -0.1% | 1.6&0.1 | 2.7 | -3.0
CC(C)CCNC(=O)CN(Cc1ccccc1)C(=O)CCC(=O)Nc1nccs1 | 0.7 | 4.1 | -1.4% | 0.6 | 2.4 | -4.6
